# High-throughput results: PubChem, Broad Institute
# FGF22 binding = binders of human FGF22 protein, primary screen, FGF22 synaptogenesis inhibitor project, biophysical, thermal shift, single point; Fibroblast growth factor 22 (Homo sapiens), Q9HCT0; recombinant FGF22 thermal shift, SYPRO orange fluorescence; percent of sucrose octasulfate shift, DMSO zero; calls only at 9.99 µM; 340,000 tested, 1.5% active; AID 651658, 2012;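 active = melting point raised past a set limit in the mean and every replicate; three in four hits are not shown here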
# Target sequence (Q9HCT0 whole entry, looked up): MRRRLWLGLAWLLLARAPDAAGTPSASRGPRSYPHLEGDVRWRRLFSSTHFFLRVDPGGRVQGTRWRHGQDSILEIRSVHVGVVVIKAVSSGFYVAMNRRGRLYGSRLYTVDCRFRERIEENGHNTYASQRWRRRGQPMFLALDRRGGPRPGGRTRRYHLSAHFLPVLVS
# AF4-AF9 inh = inhibitors of AF4 peptide binding to AF9, primary screen, biochemical, AlphaScreen, biotin-AF4 peptide, FLAG-AF9, single point. Protein AF-9 (Homo sapiens), P42568. inhibition, % at 10 µM. 350,000 tested, 0.47% active. AID 651704, 2012;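 active = every replicate reaching a set inhibition limit, whatever the replicate mean, cut at about 25% in these data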;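 note: 0% = plate neutral control median and 100% = total signal loss; the record names both 10 and 1 µM as test concentration; the first replicate is given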
# Target sequence (P42568 whole entry, looked up): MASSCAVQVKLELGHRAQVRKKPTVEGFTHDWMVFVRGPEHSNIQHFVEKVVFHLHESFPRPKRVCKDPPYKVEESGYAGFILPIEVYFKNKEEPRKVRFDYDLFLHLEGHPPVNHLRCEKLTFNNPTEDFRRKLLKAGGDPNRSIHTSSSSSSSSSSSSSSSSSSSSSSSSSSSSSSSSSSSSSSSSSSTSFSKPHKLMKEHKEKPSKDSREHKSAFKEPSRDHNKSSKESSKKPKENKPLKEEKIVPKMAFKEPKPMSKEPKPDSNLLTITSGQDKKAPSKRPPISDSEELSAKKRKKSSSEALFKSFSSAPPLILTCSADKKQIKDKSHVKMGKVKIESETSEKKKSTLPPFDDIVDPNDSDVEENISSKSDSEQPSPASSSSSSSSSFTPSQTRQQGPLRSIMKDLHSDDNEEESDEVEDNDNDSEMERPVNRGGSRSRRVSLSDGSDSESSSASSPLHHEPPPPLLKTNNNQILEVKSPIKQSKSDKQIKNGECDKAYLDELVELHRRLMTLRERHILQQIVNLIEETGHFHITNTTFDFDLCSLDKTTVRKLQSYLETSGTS
# Ecoli rRNA inh = reduced GFP signal of wild-type E. coli, primary screen, bacterial rRNA inhibitor project, GFP/RFP fluorescence, OD600, single point; E. coli WT GFP vs humanized-ribosome RFP mutants, 24 h; hits give low values; DMSO median 0, no signal -100; GFP signal change (wild-type ribosome), % (no concentration beside the values); AID 720706, 2013; 350,000 tested, 1.6% active;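 active = significant combined selectivity score with lowered wild-type GFP, culture density cut under 30%, mutant RFP and density less affected; inactive = any of these conditions unmet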; note: one replicate is shown; some compounds called inactive have numbers as strong as hits
# Ecoli rRNA inh OD600 = also measured in Ecoli rRNA inh; calls as there; OD600 change, %; measured here: OD600 growth;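 optical density of the mix in the first replicate; 0 = DMSO median and -100 = no signal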
# Ecoli rRNA inh RFP = second read-out of Ecoli rRNA inh, no call of its own (marks repeat the call); RFP signal change, %; measured here: RFP humanized mutant strains;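 first replicate; 0 = DMSO median and -100 = no signal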
# * hit, by the source's call; i = inactive. An excerpt; the hit share may differ from the screen's.
structure	FGF22 binding	AF4-AF9 inh	Ecoli rRNA inh	Ecoli rRNA inh OD600	Ecoli rRNA inh RFP
CC(C)C#Cc1ccc([C@H]2[C@H](C#N)N(C(=O)C3CCC3)[C@H]2CO)cc1	i	-0.6	1	-5	-0.3
COc1ccc(CNC(=O)C[C@@H]2CC[C@H]3[C@@H](COc4ccc(NC(=O)C(C)C)cc4C(=O)N3C)O2)cc1	i	-1.1	3	-4	0.3
C[C@@H]1CN([C@H](C)CO)S(=O)(=O)c2ccc(-c3cccc(C(=O)N(C)C)c3)cc2O[C@@H]1CN(C)Cc1ccc2c(c1)OCO2	i	9.8	-1	-7	1.2
Cc1ccccc1S(=O)Cc1ccc(C(=O)N2CCN(C3CCCCC3)CC2)o1 (centres undefined)	i	-0.2	8	3	2.7
C[C@@H]1CN([C@H](C)CO)C(=O)c2cccc(NC(=O)CCCCCC(=O)Nc3ccccc3N)c2O[C@H]1CN(C)C(=O)Nc1ccc(C(F)(F)F)cc1	i	-1.5	-1	5	2.2
C[C@H](CO)N1C[C@H](C)[C@@H](CN(C)C(=O)Nc2ccc(F)cc2)Oc2c(NC(=O)c3cnccn3)cccc2C1=O	i	-3.0	2	3	-0.1
CCCNC(=O)N1C[C@H](C)[C@H](OC)CN(C)C(=O)c2ccc(NC(=O)C3CCC3)cc2OC[C@@H]1C	i	-2.1	-1	-4	-3.2
C[C@@H]1CN([C@@H](C)CO)C(=O)Cc2cc(NC(=O)C3CCCCC3)ccc2O[C@H]1CN(C)S(=O)(=O)c1ccc(F)cc1	i	-8.1	-4	-11	-0.3
O=C(NC1Cc2ccccc2C1)[C@H]1[C@H](CO)[C@H]2Cn3c(ccc(C4=CCCCC4)c3=O)[C@@H]1N2CC1CC1	i	5.9	-5	-19	11
O=C(N[C@H]1CC[C@H](CCn2cc(C3CCCCC3)nn2)O[C@H]1CO)c1cccnc1	i	1.2	0	-5	-2.5
C[C@H](CO)N1C[C@H](C)[C@H](CN(C)C(=O)NC2CCCCC2)Oc2ccc(NS(C)(=O)=O)cc2C1=O	i	-2.5	7	4	-0.7
C[C@H]1CN([C@@H](C)CO)C(=O)c2cc(/C=C/c3ccccc3)cnc2O[C@H]1CN(C)Cc1ccncc1	i	5.5	-3	0	3.0
C[C@H]1CN([C@@H](C)CO)C(=O)c2cc(-c3ccccc3)cnc2O[C@H]1CN(C)C(=O)Cc1cccnc1	i	-3.3	0	3	-3.4
C[C@H](CO)N1C[C@H](C)[C@@H](CN(C)Cc2ccc(C(=O)O)cc2)Oc2ccc(NS(=O)(=O)c3ccccc3)cc2CC1=O	i	-2.1	2	-1	-0.3
C[C@H]1CN([C@@H](C)CO)C(=O)c2cc(C#CC3(O)CCCC3)cnc2O[C@H]1CN(C)C(=O)Cc1ccccc1	i	-5.0	4	10	-4.7
CN(C)CC(=O)N[C@H]1CC[C@@H](CCn2cc(C3CC3)nn2)O[C@@H]1CO	i	-2.9	1	5	-2.4
COCC#Cc1ccc2c(c1)O[C@H](CN(C)Cc1ccncc1)[C@H](C)CN([C@@H](C)CO)S2(=O)=O	i	-0.8	-3	-2	-1.5
COCCNc1nc2cc(-c3ccccc3C)sc2c(=O)n1C	i	0.6	-3	-18	-3.9
Cc1ccc(-c2ccc([C@@H]3[C@@H](CO)N4C(=O)CN(C(=O)CN5CCOCC5)C[C@@H]34)cc2)cc1	i	-0.1	1	3	0.9
CC(C)NC(=O)N(C)C[C@@H]1OCCCC[C@@H](C)Oc2ccc(N(C)C)cc2C(=O)N([C@@H](C)CO)C[C@H]1C	i	-0.7	6	7	0.8

# Among those listed so far, these have a halogen.
structure	FGF22 binding	AF4-AF9 inh	Ecoli rRNA inh	Ecoli rRNA inh OD600	Ecoli rRNA inh RFP
C[C@@H]1CN([C@H](C)CO)C(=O)c2cccc(NC(=O)CCCCCC(=O)Nc3ccccc3N)c2O[C@H]1CN(C)C(=O)Nc1ccc(C(F)(F)F)cc1	i	-1.5	-1	5	2.2
C[C@H](CO)N1C[C@H](C)[C@@H](CN(C)C(=O)Nc2ccc(F)cc2)Oc2c(NC(=O)c3cnccn3)cccc2C1=O	i	-3.0	2	3	-0.1
C[C@@H]1CN([C@@H](C)CO)C(=O)Cc2cc(NC(=O)C3CCCCC3)ccc2O[C@H]1CN(C)S(=O)(=O)c1ccc(F)cc1	i	-8.1	-4	-11	-0.3

# Going on with the list.
structure	FGF22 binding	AF4-AF9 inh	Ecoli rRNA inh	Ecoli rRNA inh OD600	Ecoli rRNA inh RFP
CCc1nc2c(OCC3COc4ccccc4O3)cccn2c1N(C)C(=O)c1ccccc1F (centres undefined)	i	3.4	11	-34	4.3
CCC(=O)N1[C@H](CO)[C@@H](c2ccccc2-c2cccc(C)c2)[C@@H]1C#N	i	-0.9	0	17	-2.9
O=C(c1cccnc1)N1CCCCN2[C@H](CO)[C@@H](c3ccc(C#Cc4ccccn4)cc3)[C@H]2C1	i	4.8	12	15	0.6
CC(=O)N(C)C[C@H]1Oc2cc(-c3ccc(C#N)cc3)ccc2S(=O)(=O)N([C@@H](C)CO)C[C@H]1C	i	-1.5	-3	1	-1.6
COc1ccc2c3c(n(C)c2c1)[C@H](CO)N(C(=O)Nc1ccc(F)cc1)CC31CN(C(=O)CN2CCOCC2)C1	i	-5.7	0	-5	-5.1
CCCNC(=O)c1cc2c(c(-c3cccc(-c4ccc(C#N)cc4)c3)n1)[C@H](CCO)N(C(=O)CC)C2	i	-1.1	-6	-16	2.4
CCCCc1c(-c2ccccc2OC)ncn1CCc1ccccc1OC	i	19	-63	-78	-22
C[C@@H]1CN([C@@H](C)CO)S(=O)(=O)c2ccc(-c3ccccc3F)cc2O[C@@H]1CN(C)S(C)(=O)=O	i	0.1	1	-1	1.8
CC(C)CC#Cc1ccc2c(c1)O[C@H](CN(C)S(=O)(=O)c1ccc(F)cc1)[C@H](C)CN([C@H](C)CO)S2(=O)=O	i	1.4	-2	-10	-5.8
C[C@H]1CN([C@@H](C)CO)C(=O)c2cc(NS(=O)(=O)c3cn(C)cn3)ccc2O[C@H]1CN(C)Cc1ccc(Oc2ccccc2)cc1	i	3.1	4	-2	-2.9
C[C@@H]1CN([C@@H](C)CO)C(=O)c2cc(N(C)C)ccc2O[C@H]1CN(C)S(=O)(=O)c1ccc(F)cc1	i	-1.0	1	5	-3.1
COc1ccc(C(C)=O)cc1OCc1ccccc1	i	2.5	-4	-5	2.0
C[C@H]1CN([C@@H](C)CO)C(=O)CCCn2cc(nn2)CO[C@H]1CN(C)S(=O)(=O)c1cccs1	i	1.5	0	-2	-2.1
CO[C@H]1CN(C)C(=O)c2ccc(NS(C)(=O)=O)cc2OC[C@H](C)N(C(=O)CC2CC2)C[C@@H]1C	i	-3.9	-1	4	0.5
C[C@@H]1CCCCO[C@@H](CN(C)CC2CC2)[C@@H](C)CN([C@H](C)CO)C(=O)c2cc(NC(=O)Cc3ccccc3)ccc2O1	i	-2.7	8	11	1.0
C=C1C(=O)c2sccc2C(c2ccc(OC)c(OC)c2)C1COC(C)=O (centres undefined)	i	-5.0	-25*	-1.4*	9.0*
C[C@H](O)C#Cc1cnc2c(c1)C(=O)N([C@H](C)CO)C[C@@H](C)[C@H](CN(C)CC1CCCC1)O2	i	-1.5	5	18	-2.3
COc1ccc(S(=O)(=O)N(C)C[C@H]2OCc3ccccc3-c3c(n(C)c4ccccc34)C(=O)N([C@@H](C)CO)C[C@H]2C)cc1	i	0.9	2	6	-4.7
C[C@@H]1CN([C@H](C)CO)C(=O)c2cccc(NS(=O)(=O)c3cn(C)cn3)c2O[C@@H]1CN(C)CC1CC1	i	-3.8	0	5	-4.1
C[C@@H]1CN([C@@H](C)CO)C(=O)c2c(c3ccccc3n2C)-c2ccccc2CO[C@H]1CN(C)Cc1cccc2c1OCCCO2	i	13	0	-14	16

# 2 compounds picked at random from those above:
structure	FGF22 binding	AF4-AF9 inh	Ecoli rRNA inh	Ecoli rRNA inh OD600	Ecoli rRNA inh RFP
C[C@@H]1CN([C@@H](C)CO)C(=O)Cc2cc(NC(=O)C3CCCCC3)ccc2O[C@H]1CN(C)S(=O)(=O)c1ccc(F)cc1	i	-8.1	-4	-11	-0.3
C[C@H](CO)N1C[C@H](C)[C@H](CN(C)C(=O)NC2CCCCC2)Oc2ccc(NS(C)(=O)=O)cc2C1=O	i	-2.5	7	4	-0.7

# New compounds follow:
structure	FGF22 binding	AF4-AF9 inh	Ecoli rRNA inh	Ecoli rRNA inh OD600	Ecoli rRNA inh RFP
C[C@H](NC(=O)C[C@@H]1C=C[C@H](NS(=O)(=O)c2cccc(F)c2)[C@H](CO)O1)c1ccccc1	i	-17	-7	-12	2.9
C[C@@H]1CN([C@@H](C)CO)C(=O)Cc2cc(NS(=O)(=O)c3ccccc3)ccc2O[C@H]1CN(C)CC1CCCCC1	i	6.0	-2	-43	26
O=C(NCC[C@H]1CC[C@@H](NS(=O)(=O)c2ccc(Cl)cc2)[C@@H](CO)O1)c1ccc2c(c1)OCO2	i	1.1	-6	-8	-2.4
CO[C@H]1CN(C)C(=O)c2ccc(NS(=O)(=O)c3ccc(-c4ccccc4)cc3)cc2OC[C@@H](C)NC[C@H]1C	i	-0.6	4	-3	0.6
Cc1nc2ccccc2n1C(C)c1nc2ccccc2n1CC(=O)c1ccc(OC(F)(F)F)cc1 (centres undefined)	i	-1.3	12	-6	0.0
COc1ccc(NC(=O)N2C[C@H]3[C@@H](c4ccccc42)[C@@H](CO)N3C(=O)C2CCCC2)cc1	i	0.4	6	11	-2.0
N#C[C@@H]1[C@@H](c2ccc(C#CC3(O)CCCC3)cc2)[C@@H](CO)N1C(=O)C1CCCCC1	i	-1.7	0	-6	-2.4
O=C(c1cccc(F)c1)N1CCCCN2[C@H](C1)[C@@H](c1ccc(-c3cccnc3)cc1)[C@@H]2CO	i	-4.8	-4	-6	3.1
S=C1NCCN1CC1CCN(CC2CCCC2)CC1	i	-0.3	19	10	0.1
CCCNC(=O)N(C)C[C@H]1Oc2cc(-c3cccnc3)ccc2S(=O)(=O)N([C@@H](C)CO)C[C@H]1C	i	-0.7	1	6	-3.5
CC(C)(C)Cc1c(C2CCCCC2)nc2ccc(Br)cn12	i	-1.3	11	34	2.8
Cc1noc(C)c1NC(=O)Nc1ccc2c(c1)C(=O)N([C@@H](C)CO)C[C@H](C)[C@H](CN(C)C(=O)Nc1ccc(C(F)(F)F)cc1)OCCCC[C@H](C)O2	i	-4.0	2	4	1.8
CC(C)NC(=O)N1CCCCN2[C@H](CO)[C@@H](c3ccc(C#Cc4ccccc4)cc3)[C@@H]2C1	i	-9.8	-57	-72	-12
COc1ccc(Cn2cc(CN3CC(N(C)C)CS3(=O)=O)nn2)cc1 (centres undefined)	i	0.3	10	17	-2.5
C[C@H]1CN([C@@H](C)CO)C(=O)c2cc(C#CCN(C)C)cnc2O[C@@H]1CN(C)C(=O)c1cnccn1	i	-4.1	3	11	-0.9
CC(C)CC#Cc1cnc2c(c1)C(=O)N([C@@H](C)CO)C[C@@H](C)[C@@H](CN(C)C(=O)c1ccc3c(c1)OCO3)O2	i	2.5	4	2	3.5
COc1ccc(NC(=O)N(C)C[C@@H]2Oc3ncc(-c4cccnc4)cc3C(=O)N([C@@H](C)CO)C[C@@H]2C)cc1	i	-6.8	5	-1	-3.7
CNC[C@@H]1Oc2c(NC(=O)NC(C)C)cccc2C(=O)N([C@@H](C)CO)C[C@@H]1C	i	-2.1	6	2	-1.6
C[C@H]1CN([C@@H](C)CO)C(=O)c2cccc(NC(=O)Nc3ccccc3)c2O[C@H]1CN(C)S(=O)(=O)c1ccc(Cl)cc1	i	9.9	-3	-14	2.3
Nc1[nH]c(C(=O)c2ccccc2)c(-c2ccncc2)c1C(=O)NCc1cccc2ccccc12	i	0.9	1	6	13
C[C@H](CO)N1C[C@H](C)[C@@H](CN(C)C(=O)Nc2ccc(F)cc2)OCc2ccccc2-c2c(n(C)c3ccccc23)C1=O	i	3.1	0	4	-3.3
CC(C)NC(=O)Nc1ccc2c(c1)CC(=O)N([C@H](C)CO)C[C@@H](C)[C@H](CN(C)S(=O)(=O)c1cccs1)O2	i	-7.3	5	8	-0.7
CC(=O)N(C)C[C@@H]1Oc2cc(C#CC(C)(C)O)ccc2S(=O)(=O)N([C@@H](C)CO)C[C@@H]1C	i	-0.2	4	12	-1.0
O=C(C[C@H]1CC[C@@H]2[C@H](COC[C@H](O)CN2C(=O)C2CCCC2)O1)NCc1ccncc1	i	-0.5	0	6	-2.5
Cc1noc(C)c1NC(=O)N(C)C[C@H]1Oc2c(NC(=O)c3nc4ccccc4s3)cccc2C(=O)N([C@@H](C)CO)C[C@@H]1C	i	0.6	-2	0	1.7
CC(C)C#Cc1ccc([C@H]2[C@@H](C#N)N(C(=O)C3CCC3)[C@@H]2CO)cc1	i	0.0	2	2	1.0
COc1ccc(NC(=O)N(C)C[C@H]2Oc3ccc(NC(=O)Nc4ccc(F)cc4)cc3CC(=O)N([C@@H](C)CO)C[C@@H]2C)cc1	i	0.6	2	4	-1.4
O=C(C[C@@H]1C=C[C@@H](NC(=O)c2ccc(F)cc2)[C@H](CO)O1)NCc1ccncn1	i	-9.0	0	6	-3.4
